NPYLR7 ag: agonists of mosquito NPYLR7 receptor, primary screen, cell-based, Aedes aegypti, calcium fluorescence, mosquito biting behavior. Aedes aegypti neuropeptide Y-like receptor 7 (NPYLR7). HEK293T NPYLR7/Galpha15, GCaMP6s calcium fluorescence. activation, % at 10 µM. hit rate 0.15% among 270,000. AID 1259423, 2018; in the data active = activation above about 40%;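 also: 0% = vehicle and 100% = reference agonist at the receptor; some compounds past the cut are filed as inactive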
NPYLR7 ag max-min: further read-out of NPYLR7 ag, marked with its call; activation, %; measured here: Max-Min RFU normalised activation; some inactives read as strong as hits;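 span of the calcium signal over five minutes; 0% = vehicle and 100% = native peptide agonist; compound fluorescence can raise it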
* = called active by the depositor.

SMILES	NPYLR7 ag	NPYLR7 ag max-min
CSC(=NS(=O)(=O)c1cccs1)Nc1ccc(F)c(Cl)c1	3	2
CC(=O)C1=C(O)CC(c2ccccc2)CC1=O (stereo not given)	23	27
CC(C)c1ccc(CN2CCCC3(CCN(C(=O)c4ccc5nc[nH]c5c4)C3)C2)cc1 (stereo not given)	4	2
CC(=O)N1CCc2cc(S(=O)(=O)Nc3ccc(Cl)cc3C)ccc21	1	23
COc1ccc(NC(=O)C2(C)CCN2Cc2ccoc2)cc1OC (stereo not given)	3	1
CCOC(=O)c1c(NC(=O)c2ccco2)c(-c2ccc(OC)c(OC)c2)cn1Cc1ccccc1	-11	-8
CCc1cc(Oc2ccc(C)cc2C)nc(SCc2c(F)cccc2F)n1	-1	5
O=C(c1ccc2ccccc2c1)C1CCCN(C(=O)Nc2cccc(F)c2)C1 (stereo not given)	-4	-7
Cc1nn(-c2nc(C)c(C)c(=O)[nH]2)c(C)c1CCC(=O)NCCCOC(C)C	5	-2
N#CCNC(=O)c1c[nH]cc1-c1ccc(F)cc1	10	-3
CC(=O)N1N=C(c2ccc3c(c2)OCO3)CC1c1ccc2nccnc2c1 (stereo not given)	0	15
COc1cccc(NC(=O)CCC(=O)c2ccc(SC)cc2)c1	-9	-17
COc1ccccc1C1NC(=O)N(C)C(C)=C1C(=O)OCCOc1ccccc1 (stereo not given)	10	14
CC(Oc1cccc(-c2ccccc2Cl)c1)C(N)=O (stereo not given)	3	2
O=C1NC(=Nc2ccccc2)S/C1=C/c1cccc(OC(=O)c2ccccc2)c1	-10	-17
CCC(CNC(=O)CNC(=O)c1ccc(Br)s1)c1ccccc1 (stereo not given)	1	0
CN(C)c1ccc(C=C2SC(N3CCCCC3)=NC2=O)cc1	3	2
COc1ccc(C(=O)N2C(C(=O)N3CCCC3)COC23CCN(C(=O)c2ccccc2Cl)CC3)cc1 (stereo not given)	-1	-2
COc1ccc(NS(=O)(=O)c2ccccc2C(F)(F)F)c(C(=O)NCc2ccccc2)c1	17	7
Cc1ccc(-c2csc3[nH]c(=S)n(-c4ccccc4)c(=O)c23)o1	0	-4

The last 2 records of the part above come first, to join the parts:
SMILES	NPYLR7 ag	NPYLR7 ag max-min
COc1ccc(NS(=O)(=O)c2ccccc2C(F)(F)F)c(C(=O)NCc2ccccc2)c1	17	7
Cc1ccc(-c2csc3[nH]c(=S)n(-c4ccccc4)c(=O)c23)o1	0	-4
CN1CCCC1=Nc1cc(N(C)C)nc2ccccc12	-1	-3
COc1ccc(N2C(=O)CC(NCc3ccncc3)C2=O)cc1 (stereo not given)	5	2
CCCNC(=O)C(C)NC(=O)NC(CC)c1ccc(Cl)cc1 (stereo not given)	0	1
O=C(c1cn(CCc2ccccc2)nn1)N1CCN(C23CC4CC(CC(C4)C2)C3)CC1	12	3
Cn1cccc1CNC(Cc1ccccc1)c1ccccc1 (stereo not given)	26	19
O=c1cccnn1CCCNS(=O)(=O)c1ccc(OC(F)(F)F)cc1	-7	-10
Cc1ccc(CN(CCc2ccccc2)C(=O)CN(CCN2CCCCC2)C(=O)c2ccc(Cl)cc2)o1	3	15
CC(C)Cc1cc(C(=O)N2CCCC3(CN(C)C(=O)O3)C2)on1 (stereo not given)	3	3
CN1CCN(S(=O)(=O)c2ccc(N)cc2)CC1	-8	-11
Cc1cc(C(=O)N(C)Cc2nc3ccccc3n2C)cc(S(N)(=O)=O)c1C	9	5
O=[N+]([O-])c1ccc(-c2cn3cc(Br)ccc3n2)cc1	4	3
COC(=O)C(c1ccccc1)C1C=CC(NC(=O)c2cc(F)c(Cl)cc2Cl)C1 (stereo not given)	1	-1
COc1ccc(CCn2c(-c3ccc(F)cc3C(F)(F)F)nc3ccccc3c2=O)cc1	3	-1
CCCS(=O)c1ccc2nc(NC(=O)OC)[nH]c2c1 (stereo not given)	-8	-13
CC(C)(C)c1ncsc1C(=O)Nc1ccc(CC(N)=O)cc1	8	4
O=C(CN(C(=O)Nc1ccc(Br)cc1)C1CCCCC1)N(Cc1ccc(F)cc1)Cc1cccs1	-2	-9
C=CCCC(=O)NC1CCN(c2ccc(OC(F)(F)F)cc2)CC1	10	5
CCc1nc(C)c(C(=O)NCc2cccnc2N(C)C)o1	6	4
COc1ccc(-c2nc3ccc(C)cn3c2NC(=O)c2cc(Cl)cc(Cl)c2)cc1	-4	-5
O=C1CCc2cc(S(=O)(=O)N3CCN4CCNC(=O)C4C3)ccc2N1 (stereo not given)	6	4
NC(=O)c1cccc(-c2cccc(OC(=O)NC3CCCCC3)c2)c1	-2	-7
Cc1ccc(C(=O)NS(=O)(=O)CC2CCCCO2)cc1C (stereo not given)	5	4
C=CCn1c(=O)c2c(nc3n2CCN3c2ccc(OC)cc2OC)n(C)c1=O	-18	-19
CCCN(CC(=O)Nc1cc(-c2ccccc2)nn1-c1ccccc1)C(=O)Nc1ccccc1Br	9	-4
COC(=O)CC(NC(=O)C1CCCN(C(=O)N2CCCC2)C1)c1ccccc1Cl (stereo not given)	2	-5
COC(=O)CN1C(c2cc(OC)c(OC)c(OC)c2)=Nc2ccc(Cl)cc2C1c1ccccc1 (stereo not given)	-3	-5
COC(=O)c1ccc([N+](=O)[O-])cc1S(=O)(=O)NC(=O)Nc1nc(C)nc(OC)n1	-1	-4
CCCC(=O)N1CCN(C(c2ccc(Cl)cc2)c2ccc(Cl)cc2)CC1	20	9
C=C(Cl)CN1CCC(OCC2CCCO2)CC1 (stereo not given)	-1	-6
C#CCOc1c(CC=C)cc(/C=C2/NC(=O)N(CC(=O)Nc3ccc(C)cc3)C2=O)cc1OCC	4	4
O=S(=O)(N1CCCCCC1)N1CCCCC1c1ccccn1 (stereo not given)	19	13
CCS(=O)(=O)Oc1ccc(CN(C(=O)CC(C)(C)C)C2CC2)cc1	-7	2
COc1ccc(C(=O)N2CCN(C(C(=O)NCc3cccc(C)c3)C3CCCC3)CC2)cc1OC (stereo not given)	-11	-3
COc1cc(NC(=O)Cn2nc(C(F)(F)F)c(Br)c2C)cc([N+](=O)[O-])c1	-2	-6
CN1/C(=C/C(=O)CN2CCC(NC(=O)c3ccccc3)CC2)C(C)(C)c2ccccc21	4	1
NC(=O)c1c(NC(=O)C2C3C=CC(C3)C2C(=O)O)sc2c1CCCCC2 (stereo not given)	1	-1
FC(F)(F)c1ccc(CNc2nccnc2-c2cc(C(F)(F)F)cc(C(F)(F)F)c2)cc1	-11	-13
O=C(Cc1cccc(Cl)c1)N1CCOC(COc2ccc(F)cc2)C1 (stereo not given)	-5	-10
CN(C(=O)Nc1cccc2c1OCCO2)C(c1ccncc1)c1ccc(Cl)cc1 (stereo not given)	3	2
COc1ccccc1-c1nc2cc(C)ccn2c1NC(=O)C(C)Cl (stereo not given)	-4	-2

Part of the list above in order of SMILES length, smallest number first:
SMILES	NPYLR7 ag	NPYLR7 ag max-min
C=C(Cl)CN1CCC(OCC2CCCO2)CC1 (stereo not given)	-1	-6
Cn1cccc1CNC(Cc1ccccc1)c1ccccc1 (stereo not given)	26	19
CN1CCCC1=Nc1cc(N(C)C)nc2ccccc12	-1	-3
CC(Oc1cccc(-c2ccccc2Cl)c1)C(N)=O (stereo not given)	3	2
CCCS(=O)c1ccc2nc(NC(=O)OC)[nH]c2c1 (stereo not given)	-8	-13
Cc1ccc(C(=O)NS(=O)(=O)CC2CCCCO2)cc1C (stereo not given)	5	4
COc1ccc(NC(=O)C2(C)CCN2Cc2ccoc2)cc1OC (stereo not given)	3	1
CCC(CNC(=O)CNC(=O)c1ccc(Br)s1)c1ccccc1 (stereo not given)	1	0
O=C(Cc1cccc(Cl)c1)N1CCOC(COc2ccc(F)cc2)C1 (stereo not given)	-5	-10
CC(C)Cc1cc(C(=O)N2CCCC3(CN(C)C(=O)O3)C2)on1 (stereo not given)	3	3
CC(=O)N1CCc2cc(S(=O)(=O)Nc3ccc(Cl)cc3C)ccc21	1	23
O=C(c1ccc2ccccc2c1)C1CCCN(C(=O)Nc2cccc(F)c2)C1 (stereo not given)	-4	-7
CN(C(=O)Nc1cccc2c1OCCO2)C(c1ccncc1)c1ccc(Cl)cc1 (stereo not given)	3	2
NC(=O)c1c(NC(=O)C2C3C=CC(C3)C2C(=O)O)sc2c1CCCCC2 (stereo not given)	1	-1
COC(=O)CC(NC(=O)C1CCCN(C(=O)N2CCCC2)C1)c1ccccc1Cl (stereo not given)	2	-5
COc1ccc(-c2nc3ccc(C)cn3c2NC(=O)c2cc(Cl)cc(Cl)c2)cc1	-4	-5
O=C(c1cn(CCc2ccccc2)nn1)N1CCN(C23CC4CC(CC(C4)C2)C3)CC1	12	3
CC(C)c1ccc(CN2CCCC3(CCN(C(=O)c4ccc5nc[nH]c5c4)C3)C2)cc1 (stereo not given)	4	2
FC(F)(F)c1ccc(CNc2nccnc2-c2cc(C(F)(F)F)cc(C(F)(F)F)c2)cc1	-11	-13
COC(=O)c1ccc([N+](=O)[O-])cc1S(=O)(=O)NC(=O)Nc1nc(C)nc(OC)n1	-1	-4

Following part
SMILES	NPYLR7 ag	NPYLR7 ag max-min
CCc1cccc(-n2c(CNC)n[nH]c2=O)c1	27	14
CC(C)NCc1ccccc1-c1cccc(CO)c1	7	4
Cc1cc(C)c(C)c(OCc2nc(CN(C(=O)c3ccc(Cl)cc3)C3CC3)cs2)c1	16	20
Cc1cc(=O)[nH]c(C)c1NC(=O)c1ccc(CN2CCCC(C)C2)cc1 (stereo not given)	-1	-3
CN1CCC2(CCCN(C(=O)c3nnc4n3CCCCC4)CC2)CC1	4	2
CC(C)(CN1CCCCC1)NS(=O)(=O)c1cccs1	0	-2
CC(C)N(C)Cc1nnnn1CC(=O)N(C)Cc1cccc(Cl)c1	9	4
Cc1c2c(n3c(nc4ccccc43)c1C#N)N(C1CCCC1)CC2	5	7
CNC[C@@H](O)c1ccc(O)c(O)c1	55*	46*
CCS(=O)(=O)NCc1nnnn1C1CCCCC1	1	-1
CC(NCc1cn[nH]c1-c1ccc(F)cc1)c1ccc(-n2cncn2)cc1 (stereo not given)	9	-16
CCn1ccc(C(=O)NC2=C(C#N)CCC2)n1	0	-2
O=C(c1cc(=O)c2ccccc2o1)N1CCN(c2ncnc3c2nnn3-c2ccccc2)CC1	-2	-11
c1ccc(CCn2cc(-c3nc(-c4ccc5nc[nH]c5c4)no3)nn2)cc1	11	8
CC1=CC(C)(C)N2C(=O)C3(NCCc4c3[nH]c3ccccc43)c3cccc1c32 (stereo not given)	2	0
CCOC(=O)c1ccc(NC(=O)N(CCCOC)CC(=O)Nc2cc(C(C)(C)C)nn2-c2ccccc2Cl)cc1	-6	-2
CC(=O)NCCC1CN(Cc2ccnn2-c2ccccc2)CCO1 (stereo not given)	4	4
Cc1cc(-c2cc(C(=O)Nc3ccc(C)c(S(=O)(=O)N(C)C)c3)c3c(C)noc3n2)c(C)s1	-4	-4
O=C(c1cn(Cc2ccccc2F)nn1)N1CCCC(c2nc3ccccc3[nH]2)C1 (stereo not given)	5	1
O=S(=O)(NCCCc1nc2ccccc2o1)NCc1ccccc1	8	6
COC(=O)c1c(NC(=O)c2cnccn2)sc(C)c1-c1ccc(C)c(C)c1	8	6
C=CCN(CC=C)C(=O)c1cc(-c2ccc(C)c(C)c2)nc2ccccc12	2	3
Cn1c(=O)c2c(nc3n(CC(=O)C(C)(C)C)c(-c4ccccc4)cn23)n(C)c1=O	-9	-10
Cc1sc2nc(SCC(=O)N(C)Cc3ccsc3)n(C3CCCC3)c(=O)c2c1C	15	6
O=C(O)/C=C/C(=O)Nc1ccc([N+](=O)[O-])cc1	-3	-4
CN(CCO)CC(O)Cn1cnc2c1c(=O)n(C)c(=O)n2C (stereo not given)	-4	-5
C#CCN=Cc1c(O)n(CCOC)c(=S)[nH]c1=O	-5	-9
CCOC(=O)c1ccc(NC(=O)N2CCCC2C(=O)Nc2nnc(-c3ccc(Br)cc3)s2)cc1 (stereo not given)	-5	6
CC1(C)ON=C(c2ccc3c(c2)OCO3)N(Cc2ccccc2F)C1=O	6	4
CCOC(=O)CCn1c(=O)c2c(nc3n(-c4cc(C)cc(C)c4)c(C)c(C)n23)n(C)c1=O	-1	4
Nc1nnc(SCC(=O)N2CCN(CCc3ccncc3)CC2)s1	10	-2
CCN1CCN(c2cc(CNC(=O)Nc3ccncc3)ccn2)CC1	-1	-4
O=C(c1ccc(-c2cc(-c3ccc(Cl)cc3)[nH]n2)cc1)N1CCC(C(F)(F)F)CC1	7	1
COCCNS(=O)(=O)c1ccc(OC)c(N2CCN(C(=O)c3c(F)cccc3Cl)CC2)c1	2	-1
Cc1ccccc1OC1CN(C(=O)c2cn(CCN)nn2)C1	2	2
CC(CN1CCCC1=O)Nc1cnn(C)c(=O)c1Br (stereo not given)	-4	-10
NNC(=O)/C(=C\c1ccccc1)CCO	-11	-16
CCCOc1ccccc1N1C(=O)CC(Nc2ccccc2)C1=O (stereo not given)	0	-5
COCc1c(Cl)cccc1NC(=O)C1CC1c1ccco1 (stereo not given)	3	0
Cc1cnc2n(c1=O)C(CC(=O)NCC1CCCO1)CS2 (stereo not given)	1	1
CCOc1ccc(-c2cn(CC)nc2C)cc1	-4	-11
COc1ccc(CN2CCN(C(=O)c3ccc4c(c3)NC(=O)C(C)S4)CC2)cc1F (stereo not given)	7	8
O=S(=O)(Nc1ccc(Br)cn1)c1ccc(Cl)cc1	5	-1
CCOC(=O)c1ccc2c(c1)nc(SCc1ccccc1OC)n2CCc1ccc(OC)cc1	13	6
COc1ccc(CCN(Cc2sccc2C)C(=O)CN(CC(C)C)C(=O)CCl)cc1OC	-4	-5
CN(CCCNc1ccccc1)C(=O)Nc1cccc(S(C)=O)c1 (stereo not given)	5	4
Cc1nnc(SC2CC(=O)N(c3ccc(C)c(C)c3)C2=O)s1 (stereo not given)	-4	-6
O=C(O)CCCN1C(=O)c2cccc([N+](=O)[O-])c2C1=O	16	11

Not all compounds are listed, so the mix of outcomes need not match the whole.
